Screens deposited in PubChem by several laboratories.
Calb FLC: C. albicans growth inhibition with fluconazole, primary screen, CaCi-2 strain, Alamar Blue fluorescence. C. albicans CaCi-2 (fluconazole-resistant clinical isolate) + fluconazole, 48 h. growth inhibition, % (test concentration not listed). hit rate 0.57% among 300,000. AID 1979, 2009;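 active = most replicates above 75%; inconclusive = exactly half above 75%; inactive = most below 75%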;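 note: all wells also contain fluconazole at 8 µg/ml as a sub-toxic cotreatment; 0% = median of DMSO wells and 100% = median of geldanamycin control wells; wells of about 8 µL received 7.5 nL stock; the first replicate is given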
RanGTP-Impb inh: inhibitors of RanGTP-importin-beta interaction, primary screen, biochemical, FRET, CFP-Ran, YFP-importin-beta, homogeneous | cell-free CFP-Ran/YFP-importin-beta FRET ratio | hit rate 1.1% among 300,000 | Ran GTPase (GTP-bound) - importin-beta complex | inhibition, % (no concentration beside the values) | AID 2216, 2009;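 active = most replicates above 15%; inconclusive = exactly half above 15%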;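 note: 0% = DMSO wells and 100% = Ran loaded with GDP instead of GTP; wells of about 40 µL received 100 nL stock; the first replicate is given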
LANA-H2B inh: blockers of LANA interaction with H2A/H2B – biochemical, FP readout, HTS, primary screen; Protein LANA1 (Human herpesvirus 8 type P (isolate GK18)), Q9QR71; cell-free LANA-H2A/H2B peptide, fluorescence polarization; inhibition, % (no concentration beside the values); hit rate 0.6% among 320,000; AID 2629, 2010; in the data active = inhibition mostly above about 10%, no sharp cut-off; inactive = mostly below about 6.7%;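 note: stock transfer was 7.5 nL into about 10 µL; 0% = median of vehicle wells and 100% = median of positive control wells; one replicate is shown; the record names a cut of 25% in any replicate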
AF4-AF9 inh: inhibitors of AF4 peptide binding to AF9, primary screen, biochemical, AlphaScreen, biotin-AF4 peptide, FLAG-AF9, single point. Protein AF-9 (Homo sapiens), P42568. inhibition, % at 10 µM. hit rate 0.47% among 350,000;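 active = every replicate reaching a set inhibition limit, whatever the replicate mean, cut at about 25% in these data; inconclusive = mean inhibition reaches that limit but some replicates miss it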;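 note: 0% = plate neutral control median and 100% = total signal loss; the record names both 10 and 1 µM as test concentration; the first replicate is given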
Target sequence (P42568 whole entry, looked up): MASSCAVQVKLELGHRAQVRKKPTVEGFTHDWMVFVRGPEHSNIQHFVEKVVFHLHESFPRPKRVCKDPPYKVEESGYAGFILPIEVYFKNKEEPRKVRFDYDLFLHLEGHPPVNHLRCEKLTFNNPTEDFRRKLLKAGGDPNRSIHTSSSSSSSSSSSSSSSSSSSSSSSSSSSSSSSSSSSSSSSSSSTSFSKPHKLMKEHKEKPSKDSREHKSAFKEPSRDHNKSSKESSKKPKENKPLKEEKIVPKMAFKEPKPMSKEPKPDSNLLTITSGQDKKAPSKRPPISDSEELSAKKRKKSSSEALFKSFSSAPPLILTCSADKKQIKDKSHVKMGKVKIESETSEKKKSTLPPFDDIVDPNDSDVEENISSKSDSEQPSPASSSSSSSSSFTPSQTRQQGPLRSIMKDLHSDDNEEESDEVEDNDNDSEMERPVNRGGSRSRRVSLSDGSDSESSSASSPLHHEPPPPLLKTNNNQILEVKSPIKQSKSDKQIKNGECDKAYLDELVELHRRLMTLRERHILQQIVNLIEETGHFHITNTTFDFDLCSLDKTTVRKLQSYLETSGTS
A1 inh: caspase 3/7 activation in MEF A1-2A-BIM cells, primary screen, A1 inhibitor project, cell-based, luminescence, HTS | Caspase-Glo 3/7 luminescence, 3 h; percent of clofoctol response, vehicle zero | caspase activation, % (concentration not given with the values) | hit rate 0.066% among 330,000;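 active = over half of replicate activation scores above 10%, or exactly half above 10 with the replicate mean above 10; inconclusive = replicate mean below 10 yet half the replicates above 10; inactive = over half of replicates below 10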;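 note: wells of about 30 µL received 50 nL stock; many hits fall short of the cut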
T cruzi repl: inhibitors of intracellular T. cruzi growth, primary screen, luminescence, NIH3T3 host cells; T. cruzi beta-gal in NIH3T3, 90 h; inhibition, % (test concentration not listed); hit rate 1.4% among 300,000; AID 1885, 2009;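 active = mean inhibition across valid replicates above about 55%, limit read from the data; inconclusive = mean below that limit but half or more replicates reach it; inactive = mean below it, under half of replicates reach it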;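 note: signal also drops with host cell toxicity which is not excluded here; 0% = plate median of DMSO wells and 100% = zero luminescence signal; higher percent means less beta-gal luminescence so fewer parasites; stock transfer was 50 nL into about 50 µL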
Beta cell apopt: inhibitors of cytokine-induced beta cell apoptosis, primary screen, luminescence | AID 435005, 2010 | protection from apoptosis, % (concentration not given with the values) | INS-1E cytokine-induced death, ATP luminescence, 48 h; percent of positive-control rescue, neutral wells zero | hit rate 0.8% among 300,000;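 active = all replicates at 75% or more, or half of them and the mean; inconclusive = half reach 75% but not the mean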;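 note: 0% = cytokine-treated negative control wells and 100% = positive control rescue; higher means more ATP so stronger rescue from cytokine killing; wells of about 40 µL received 100 nL stock; the first replicate is given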
Vif A3G: inhibitors of Vif binding to APOBEC3G peptide, primary screen, biochemical, TR-FRET, GST-Vif 1-94, biotin-A3G peptide, dose response retest (AID 1117319) | TR-FRET GST-Vif / biotin-A3G peptide binding; higher % means a stronger effect; test concentration not given here; strong numbers were not always called active | hit rate 0.57% among 260,000 | one-dose inhibition, %; IC50 in µM for titrated hits | Virion infectivity factor (Human immunodeficiency virus type 1 group M subtype B (isolate …;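 active = above the screen mean plus three standard deviations and confirmed in dose response; inconclusive = results disagree or hit not tested in dose response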;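 note: Vif residues 1-94 fused to GST binding biotinylated APOBEC3G peptide 110-148; 0% = full assay without inhibitor and 100% = GST in place of GST-Vif; retest series ran down from 100 µM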
The depositor's hits bear a star; ? = inconclusive; / = no result given.

SMILES	Calb FLC	RanGTP-Impb inh	LANA-H2B inh	AF4-AF9 inh	A1 inh	T cruzi repl	Beta cell apopt	Vif A3G
O=C1CCN(S(=O)(=O)c2ccccc2)CCN1CCOCc1cccc(F)c1	20	0.2	7.4	/	-0.6	7	-6	/
CCc1c(C)sc(NC(=O)c2ccco2)c1C(=O)N1CCCCC1	34	-1.8	6.7	/	-0.1	9	-12	16%
COc1cccc(N2C(=O)C(Cc3c[nH]c4ccccc34)NC2=S)c1 (stereo not given)	-21	1.4	1.6	/	0.3	-10	0	1%
CN1CCN(CCc2nc3cc(NC(=O)COc4ccc(Cl)cc4)ccc3n2C)CC1	-4	3.7	-3.4	3.9	-0.5	23	/	/
CN(C)S(=O)(=O)c1ccc(C(=O)Oc2ccccc2)cc1	-2	1.6	4.1	/	-0.4	-13	-7	5%
O=C(Nc1cccc(Cl)c1)Nc1cnccn1	-1	0.4	-1.3	-8.3	-1.3	11	3	-7%
NC(=O)N/N=C\c1cc(Br)ccc1O	4	3.1	0.2	2.7	0.4	-3	/	?
CCCCCCN1C(=O)C(O)=C(C(C)=O)C1c1ccc(Cl)cc1 (stereo not given)	21	?	-1.3	/	0.3	-11	2	-5%
COc1ccc(N2CCN(C(=O)C(NC(=O)c3c(F)cccc3F)C(C)C)CC2)cc1 (stereo not given)	23	3.5	-2.5	3.6	/	1	8	-3%
Cc1cc(C)c2ccc(C)[n+]([O-])c2c1O	0	2.6	0.7	/	0.7	-1	2	?
CCCn1c(NCc2ccc(C)o2)nc2ccccc21	42	5.0	1.4	/	0.2	-38	-1	1%
O=C(c1ccccc1)c1ccc(CN2C(=O)c3ccccc3C2=O)o1	0	-0.6	-0.7	1.2	0.5	0	-3	-1%
CCCn1cc(S(=O)(=O)CC(=O)N2CCc3ccccc32)c2ccccc21	28	-3.2	3.8	/	0.3	-2	-5	1%
Nc1nc(SCc2ccc(F)cc2)ns1	-19	-0.4	2.5	3.1	-0.8	-20	-20	4%
Cc1ccc(-c2nnn(CC(=O)NCC3COCCO3)n2)o1 (stereo not given)	0	1.0	6.2	/	1.1	2	-7	13%
Cc1cccc(C(=O)NC(=S)N2CCN(c3ccc([N+](=O)[O-])cc3)CC2)c1	-25	6.7	-4.3	-1.5	-0.4	-2	1	2%
CC(=O)c1c(COC(=O)c2cccnc2)nc2ccccc2[n+]1[O-]	1	3.8	-1.2	/	-0.3	-4	-5	20%
COc1ccc(OCC(=O)Nc2c3c(nn2-c2ccc(OC)cc2)CS(=O)(=O)C3)cc1	1	5.0	0.3	-1.8	-2.7	9	0	/
CC(=O)c1c2c3c(c(Br)ccc3n(C)c1=O)C(=O)c1ccccc1-2	-16	5.4	2.6	1.4	1.0	-23	3	/
CC1Cc2ccccc2N1C(=O)c1ccc(N2CCCCC2)c([N+](=O)[O-])c1 (stereo not given)	-2	-4.2	/	?	0.0	22	4	-4%
C=CCSC1=C(C#N)C2(CCCCC2)C(C#N)C(=O)N1 (stereo not given)	-4	/	0.9	/	-0.7	6	0	1%
CC(=O)c1cc(F)c(N2CCCC2)cc1C	-19	-1.6	1.4	/	0.1	-22	-2	1%
CCN(CCO)c1nc(NCc2ccccc2)c2cnn(C)c2n1	-39	?	0.1	6.0	-0.5	12	-9	-1%
COc1ccc(C(=O)N/N=C2\CCc3ccccc32)cc1OC	-8	4.1	8.4	3.4	-0.8	-11	-1	-16%
COCCN(C(=O)COC(=O)c1ccccc1Oc1ccccc1)c1c(N)n(Cc2ccccc2)c(=O)[nH]c1=O	3	1.6	-1.9	2.8	-0.2	3	0	-3%
COc1ccc(-c2cn3ccsc3n2)cc1	8	-1.8	0.7	/	-0.1	2	5	-6%
CSc1ccc(-c2cc(=O)c3ccccc3o2)cc1	23	2.6	0.5	8.9	-0.8	-3	1	-14%
CCOc1ccc(-n2c(SCC(=O)Nc3nccs3)nc3c(c2=O)SCC3)cc1	-5	3.4	-2.0	-9.4	-0.3	-20	17	15%
COc1ccc2ccccc2c1CNCc1ccc(C)cc1	31	2.3	-4.2	3.6	0.4	26	/	/
O=C(CN1c2cccc3cccc(c23)S1(=O)=O)NCc1ccc(Cl)cc1	/	/	3.3	0.3	0.2	/	-2	/
CCOCCCNC(=O)C(C)NS(=O)(=O)c1ccc(C)cc1 (stereo not given)	-10	-4.7	1.3	/	0.8	-5	-4	2%
CS(=O)(=O)N(CC(=O)N1CCCCCC1)c1cccc(Br)c1	-17	-3.3	1.3	/	-0.5	-21	-4	4%
Cc1ccc(NC(=O)COc2cccc3ccccc23)c(O)c1	/	/	3.2	-0.9	-0.8	/	-1	32%
Cc1cccn2c(=O)c(/C=C(\C#N)C(=O)NC3CCS(=O)(=O)C3)c(N3CCC(C)CC3)nc12 (stereo not given)	-4	84*	-0.4	/	-0.3	8	-9	/
COCCn1c(=O)[nH]c2cc(C(=O)NCCCN3CCN(c4ccc(F)cc4)CC3)ccc2c1=O	-13	2.2	2.3	/	-0.6	-12	-7	2%
O=C(Cc1ccc2ccccc2c1)Nc1ccccc1Br	9	-5.5	39*	-4.0	0.8	-10	-1	/
O=S(=O)(Nc1nc2ccccc2nc1OCC(F)(F)F)c1cccs1	1	7.3	-2.7	/	0.1	7	3	2%
Cc1ccnc(NC(=S)NC(=O)/C=C/c2ccc(Cl)cc2)c1	11	2.0	5.0	/	-0.2	-3	3	/
O=C1NC(=O)/C(=C\c2ccccc2Oc2ccc(F)c(F)c2)S1	?	1.6	-5.0	/	1.4	/	12	-3%
Cc1ccc(S(=O)(=O)N(C)C)cc1NC(=S)NC(C)CCCC(C)C (stereo not given)	-21	3.1	/	/	1.1	1	7	0%
Cc1cc(Cl)ccc1OCC(=O)OC(C)C(=O)NC(N)=O (stereo not given)	-2	1.5	0.2	/	0.3	-14	5	1%
CCN(CC)S(=O)(=O)c1cccc(NC(=O)C2SC(=Nc3ccc(C)cc3C)C(C(=O)NC(C)COC)=C2N)c1 (stereo not given)	-22	1.7	4.2	/	0.6	53	6	2%
CC1CCN(CCCNC(=O)CCCNC(=O)Cn2cnc3sc4c(c3c2=O)CCCC4)CC1	-17	3.3	5.8	/	0.8	-7	1	7%
CCC(=O)N1CCc2cc(S(=O)(=O)CCC(=O)Nc3ccc(C)cn3)ccc21	5	-2.2	-1.2	/	0.0	9	-4	8%
CCOC(=O)NC1(Nc2ccc(C)cc2)Oc2ccccc2O1	0	-4.8	1.3	-1.6	1.0	-15	/	?
Cc1cc([N+](=O)[O-])ccc1-c1ccc(/C=N/NC(=O)c2ccc(Br)o2)o1	11	-27	-0.7	-9.9	1.3	24	65	/
Nc1n[nH]c(N)c1N=Nc1ccccc1F	5	-0.6	-3.6	-0.8	-1.6	1	-15	5%
Cc1cccc(OCC2=N/C(=C\N(C)C)C(=O)O2)c1	-1	3.9	0.1	/	1.8	-2	-6	0%
CCOC(=O)CSc1nsc(SCC(=O)OCC)c1C#N	-10	-4.5	-0.4	/	-1.1	-7	-8	?
CCOC(=O)c1c(NC(=O)c2ccccc2C(=O)O)sc2c1CCC2	17	-1.4	1.9	-1.9	0.7	1	0	-2%
COc1ccc(-n2c(C)cc(C(=O)Cn3c(NCCO)nc4ccccc43)c2C)cc1	13	6.1	6.9	/	0.9	7	4	0%
OC(CNCC1COc2ccccc2O1)COc1ccccc1F (stereo not given)	-17	7.7	0.5	-0.2	-0.5	2	8	/
CC(=O)Nc1nc(=S)n(-c2ccccc2)[nH]1	20	-0.8	2.3	/	/	-16	1	-2%
Cc1ccc(S(=O)(=O)NCCC(=O)NC(C)c2ccccc2)cc1 (stereo not given)	20	2.1	-2.5	0.2	0.4	-12	-3	-8%
Cc1ccc(NC2CCCN(C(=O)c3ccc4[nH]ccc4c3)C2)cc1C (stereo not given)	7	1.2	-14	0.1	?	15	-1	5%
CCOc1ccc(NC(=S)N2CCC(NC(=O)c3ccccc3C)CC2)cc1	2	0.4	3.3	-4.6	-0.7	-2	-4	17%
CN1CCc2c(sc(/N=C/c3c[nH]c4ccccc34)c2C(N)=O)C1	?	46*	-42	4.5	-0.5	-6	-1	7%
CC(=O)Nc1c(C)ccc(S(N)(=O)=O)c1C	-2	-3.2	-11	0.1	1.0	-11	-3	4%
OCCC1CN(Cc2nc3ccccc3s2)CCN1C1CCCCC1 (stereo not given)	-17	-3.2	-3.1	1.3	-0.7	31	-10	-11%
CC(=O)c1ccccc1NC(=O)COC(=O)CSCC(=O)Nc1cc(C)on1	-1	1.6	0.5	-1.9	0.2	-1	-6	-4%
(list continues)
SMILES	Calb FLC	RanGTP-Impb inh	LANA-H2B inh	AF4-AF9 inh	A1 inh	T cruzi repl	Beta cell apopt	Vif A3G
COC(=O)c1ccc2c(C(C)(C)O)c(C(C)(C)O)[nH]c2c1	4	35*	-1.4	/	-3.6	-13	-7	/
COc1ncnc2c1oc1nc(C(C)C)c3c(c12)CC(C)(C)OC3	-2	-4.6	3.0	/	-0.1	6	-1	-9%
CC1CC(C)CN(C(=O)c2ccc(CNc3c(N4CCCC4)c(=O)c3=O)cc2)C1 (stereo not given)	-2	-2.7	-1.9	-0.4	0.3	4	-2	-15%
CS(=O)(=O)Nc1nnc(Cc2ccccc2)s1	-2	-0.3	4.2	/	-0.1	-3	-6	8%
O=C(N/C(C(=O)N1CCOCC1)=C(\Sc1ncccn1)c1ccccc1)c1ccccc1	5	-0.3	4.4	/	1.1	4	-9	-5%
CN(Cc1ccccc1)S(=O)(=O)c1ccccc1[N+](=O)[O-]	0	3.1	2.0	4.1	-1.0	-17	-4	-16%
COc1ccc(/C(C)=C(\C#N)C(=O)OC(C)C)cc1OC	-10	?	-0.8	/	1.7	-7	-8	9%
C=CCNC(=O)C(=O)Nc1ccc2c(c1)N(S(=O)(=O)c1cccs1)CCC2	0	3.0	-3.3	0.1	0.1	0	2	6%
COc1ccc(NC(=O)CCCC(=O)c2ccccc2)cc1	6	5.1	2.0	-9.4	0.5	3	4	-4%
O=C1[C@H]2[C@@H](C3CC3)N3C(=O)CN(CC4CC4)C(=O)[C@@]3(Cc3ccccc3)[C@H]2C(=O)N1c1ccccc1	/	/	5.7	0.2	0.6	/	-4	/
Cc1c(O)nc(SCC(=O)Nc2ccc3c4c(cccc24)CC3)n(-c2ccc(F)cc2)c1=O	12	-2.0	2.5	/	-0.5	-19	-13	>100µM*
O=C1N/C(=N\N=C\c2ccc3ncccc3c2)SC1Cc1ccc(SC(F)F)cc1 (stereo not given)	6	/	0.7	/	-0.3	33	8	-2%
COc1cc(/C=C/C2=CC(C)(C)NC(=S)N2)cc(OC)c1OC	2	4.8	1.0	3.8	0.9	-9	-1	1%
O=C(Cn1cnc2c(nnn2Cc2ccccc2)c1=O)NCc1ccco1	-6	3.9	3.0	2.6	?	-6	-2	-2%
